Screens (PubChem BioAssay)
INS promoter inh: inhibitors of insulin promoter-driven GFP, primary screen, imaging, TRM-6 cells (human fetal islet line), eGFP reporter, cell count. reporter expression induced with tamoxifen. 0.9% of 130,000 active. inhibition, % at 2 µM;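 active = inhibition above the mean plus 3 SD, with well images judged a real hit on visual review, cut at about 60% in these data, passing the limit was not always enough; inconclusive = inhibition over the cutoff but images rejected on review; inactive = inhibition not above the cutoff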
PKD1 kinase inh: inhibitors of human PKD1 kinase, biochemical, fluorescence polarization. AID 797, 2007. 0.056% of 200,000 active. PKD1 kinase fluorescence polarization assay. inhibition, %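 (about 10 µM by stock and volumes)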;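 active = inhibition of 50% or more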;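 also: controls were vehicle for no effect and a reference inhibitor for full effect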
GALR2 agonist: GALR2 receptor agonists, primary screen, cell-based; Galanin receptor type 2 (Homo sapiens), O43603; GALR2-expressing cells, agonist activation read-out; activation, %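 (tested at 5 µM)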; 0.48% of 140,000 active; AID 803, 2007;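 active = above mean plus 3 SD of all compounds, about 5% in these data, not always enough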;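 also: 0% = vehicle buffer wells and 100% = reference agonist at full effect; tested in CHO reporter cells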
Target sequence (O43603 whole entry, looked up): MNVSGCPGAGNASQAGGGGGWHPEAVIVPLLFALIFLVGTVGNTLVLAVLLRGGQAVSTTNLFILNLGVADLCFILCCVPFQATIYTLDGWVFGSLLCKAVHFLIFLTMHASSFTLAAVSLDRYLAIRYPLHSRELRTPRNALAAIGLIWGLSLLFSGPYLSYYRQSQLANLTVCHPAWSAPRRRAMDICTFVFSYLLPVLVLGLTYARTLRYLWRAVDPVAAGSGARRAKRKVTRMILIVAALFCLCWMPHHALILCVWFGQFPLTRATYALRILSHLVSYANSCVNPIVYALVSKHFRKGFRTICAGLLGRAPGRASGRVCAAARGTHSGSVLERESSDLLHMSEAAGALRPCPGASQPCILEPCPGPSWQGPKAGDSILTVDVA
HSV replic up: enhancers of HSV replication in host cells, fold increase, host cell viability | HSV replication augmentation in cells | maximum fold increase | 0.005% of 220,000 active | AID 1956, 2009;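 active = peak rise of 1.5-fold or more in the series; inconclusive = self-fluorescent or not available for retest; tested in PC3 cells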;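 also: first round at 10 µM; read as green reporter fluorescence; hits show the peak of a series up to 25 µM; 1 = signal of infected wells without compound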
RGS16-Gao HTS: modulators of RGS16 binding to Galphao, primary screen, biochemical, human proteins, multiplexed bead flow cytometry; AID 1441, 2008; Regulator of G-protein signaling 16 (Homo sapiens) + Guanine nucleotide-binding protein …; bead-based flow cytometry RGS16-Galphao binding, fluorescence; actives lie on both sides; 0.38% of 220,000 active; binding response (% of control), % at 10 µM;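 active = below 25% or above 175%, edge rows of some plates excepted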;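 also: Galphao activated by GDP with aluminum fluoride before binding; 100% = wells without compound and 0% = beads without RGS; some results beyond the cut were filed as inactive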
Target sequence (O15492 whole entry, looked up): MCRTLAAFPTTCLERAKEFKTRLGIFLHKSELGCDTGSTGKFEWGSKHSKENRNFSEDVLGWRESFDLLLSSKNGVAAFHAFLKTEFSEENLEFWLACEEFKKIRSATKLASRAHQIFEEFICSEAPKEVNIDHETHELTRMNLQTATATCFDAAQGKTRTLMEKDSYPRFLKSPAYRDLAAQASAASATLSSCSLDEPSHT
Target sequence (P09471 whole entry, looked up): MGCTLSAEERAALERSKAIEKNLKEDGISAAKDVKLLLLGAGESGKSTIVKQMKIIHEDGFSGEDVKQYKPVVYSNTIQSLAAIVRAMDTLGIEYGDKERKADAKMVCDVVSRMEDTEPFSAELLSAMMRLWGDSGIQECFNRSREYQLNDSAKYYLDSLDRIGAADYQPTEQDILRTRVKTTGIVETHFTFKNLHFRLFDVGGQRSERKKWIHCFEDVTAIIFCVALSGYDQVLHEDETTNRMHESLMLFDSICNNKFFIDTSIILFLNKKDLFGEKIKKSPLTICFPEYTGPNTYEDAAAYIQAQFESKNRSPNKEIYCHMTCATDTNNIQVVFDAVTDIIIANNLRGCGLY
INS promoter inh cell count: also measured in INS promoter inh; calls as there; normalized cell count, %; measured here: cell count, toxicity; reference of the scale not given here;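 cells exposed to compound for 48 h; stained nuclei by imaging scaled within each plate; lower means fewer cells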
HSV replic up primary fold: further read-out of HSV replic up, marked with its call; fold increase; compound at 10 µM; measured here: primary screen fold increase 10 uM; tested in PC3 cells;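 GFP signal in the first replicate; 1 = infected wells without compound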
Active calls of the source: *; i = inactive; ? = inconclusive; . = not tested or not shown; & = joins results of further samples.

mol,INS promoter inh,INS promoter inh cell count,PKD1 kinase inh,GALR2 agonist,HSV replic up,HSV replic up primary fold,RGS16-Gao HTS
CCOC(=O)c1nc(Nc2ccc(Nc3ccccc3)cc2)c2ccccc2n1,.,.,4,.,i,0.67,104
CCC(CC)C(=O)Nc1ccc(Cl)c(Cl)c1,32,152,6,-0.7,i,1,102
CN(C)c1ccc(/C=C/C=N/Nc2nc(N3CCOCC3)nc(N3CCOCC3)n2)cc1,-8,128,-6,.,i,1.1,102
CCOC(=O)C1=C(C)NC(SCC(=O)O)=C(C#N)C1c1ccco1 (stereo not drawn),26,135,-2,-2.7,i,0.9,101
COc1ccccc1NC(=O)COC(=O)c1ccc2c(c1)nc(C)n2-c1ccccc1,64,72,-9,-0.5,i,0.91,102
c1ccc(C2c3[nH]c4ccccc4c3CCN2Cc2cccn2-c2cccnc2)nc1 (stereo not drawn),.,.,1,.,i,0.97,103
CCCCNc1c([N+](=O)[O-])cc(C(=O)O)cc1[N+](=O)[O-],16,131,1,-0.8,i,0.97,107
O=C(O)[C@H](Cc1ccccc1)NC(=O)N1CCOCC1,-100,76,4,-1.4,i,0.99,98
CCN(CC)CC(=O)Nc1scc2c1c(=O)oc1ccccc12,.,.,.,.,i,0.91,98
COc1ccc(C(CCN2CCCC2)c2c(OC)cc(OC)c3c(-c4ccccc4)cc(=O)oc23)cc1 (stereo not drawn),.,.,.,.,i,0.87,105
Cc1nn(C)c(Cl)c1C(=O)NC(C(=O)O)c1ccccc1 (stereo not drawn),.,.,9,.,i,1.1,101
C=C(C)CSc1nnc([C@@H]2CCCN2)o1,.,.,.,.,i,0.99,99
COc1ccc(CCNC(=O)Cn2c(=O)n(-c3ccc(C)c(F)c3)c(=O)c3sccc32)cc1OC,.,.,-10,.,i,1,98
CC(C)=CCN1CCN(Cc2cccc3c2OCO3)CC1CCO (stereo not drawn),.,.,3,.,i,1.1,109
CCOC(=O)Cc1nnc(NC(=O)C(CC)Sc2nncn2C)s1 (stereo not drawn),0,73,-4,-2.4,i,0.88,39
COc1ccc(/C=N/NC(=O)Nc2cccc3nsnc23)cc1,.,.,-9,1.8,i,0.86,106
C/C(=N\N=C1\NC(=O)CC(C(=O)O)S1)c1ccc(F)cc1 (stereo not drawn),-15,108,-11,-0.8,i,0.95,78
CC(=O)Nc1c(I)c(NC(C)=O)c(I)c(C(=O)O)c1I,5&-29,72&77,-6&5,0.1&-0.7,i,0.73&0.95,89&48
Cc1sc2c(c1C)C(=O)/C(=C\Nc1ccncc1)S(=O)(=O)N2C,.,.,.,.,i,1.1,98
CCOC(=S)SCC(=O)Nc1nc(-c2ccc(Br)cc2)cs1,-180,46,1,16*,i,0.68,100
CC(CN1CCN(C)CC1)OC(=O)c1ccccc1Cl (stereo not drawn),18,135,-4,-1.8,.,.,105
CS(=O)(=O)c1ccc(Sc2nc3ccccc3s2)c([N+](=O)[O-])c1,.,.,-5,-0.8,i,0.73,103
CS(=O)(=O)N1CCN(C2CCN(Cc3ccccc3)CC2)CC1,3,152,-1,0.1,.,.,107
O=C(/C=C/c1ccco1)NC1=NCCS1,-16,113,-14,-1.4,i,0.69,87
CCOC(=O)Nc1cccc(Nc2ccccc2)c1,-1,135,4,-0.4,i,0.73,92
O=C(CCC(=O)N1CCN(C(=O)c2ccco2)CC1)c1ccc(F)cc1,.,.,2,.,i,0.95,105
CCOC(=O)C1CCN(S(=O)(=O)c2ccc(NC(=O)OC)cc2)CC1,26,81,-5,-1.4,i,1.1,103
COc1ccc(NC(=O)c2ccc(Cc3ccc(C)cc3)o2)cc1,52,98,-5,-1.1,i,1,96
O=C1c2ccc3c4c(ccc(c24)C(=O)N1c1ccc2ccccc2c1)CC3,20,85,-2,-0.6,i,1,94
O=C1CCCC2=C1C(c1ccc(O)cc1)c1c(ccc3ccccc13)N2 (stereo not drawn),.,.,1,.,i,0.96,94
Cc1cc(=O)oc2cc(OCC(=O)N/N=C/c3cc([N+](=O)[O-])ccc3O)ccc12,.,.,-11,-1.0,i,1,80
Cc1ccc(C2=NC3(CCCCC3)N=C2SCC(=O)Nc2ccc3c(c2)OCCO3)cc1,-43,88,-7,-0.3,.,.,.
Cc1ccc2nsnc2c1NC(=O)COc1ccccc1,-67,149,-4,.,i,0.95,104
CCC(C)NC(=O)C(Cc1ccccc1)n1cccc1 (stereo not drawn),-114,73,-5,-1.5,i,0.71,114
C=CCn1cnc2scc(-c3ccc(C)cc3)c2c1=O,-25,172,1,-1.0,i,0.9,100
CCCC(=O)Nc1ccc(NC(=S)NC(=O)c2ccccc2[N+](=O)[O-])cc1,.,.,8,-1.4,i,0.9,107
COc1ccc(CC(=O)NCc2ccco2)cc1OC,-46,129,-8,-2.8,i,0.88,104
O=C(CN1CCCCC1)Nc1cc(Cl)ccc1Cl,.,.,-5,180*,i,1,101
CC1C/C(=N/Nc2ccc([N+](=O)[O-])cc2[N+](=O)[O-])CC(C)(C)C1 (stereo not drawn),0,133,2,-1.4,i,0.95,109
COc1ccc(NCC(O)COc2ccc(C(C)(C)C)cc2)cc1 (stereo not drawn),.,.,-9,.,i,0.91,99
O=C(Cc1c(F)cccc1Cl)NCCCn1ccnc1,.,.,-9,-1.4,i,0.96,112
Cc1ccc(NC(=O)c2sc(=S)n(-c3cc(C)ccc3F)c2N)cc1,11,49,6,.,i,1.1,99
O=C(Cn1nc(-c2nn(CC(=O)c3ccccc3)c3[n+]2CCCCC3)[n+]2c1CCCCC2)c1ccccc1,.,.,.,.,i,1.1,100
COc1ccccc1NC(=O)CN1C(=O)C2(OCCCO2)c2ccccc21,-65,150,-14,-1.8,i,1.2,108
O=C(NCCCN1CCOCC1)C(=O)NCc1ccco1,.,.,-1,.,i,1,106
Cc1cc([N+](=O)[O-])nn1CC(=O)NCc1nc2ccccc2[nH]1,31,102,-3,.,.,.,107
CC1Cc2ccccc2N1C(=O)CCNS(=O)(=O)c1cccc2nsnc12 (stereo not drawn),-129,42,-2,-0.4,i,0.86,105
O=C(CCl)N(CCCNC(=O)C(F)(F)F)c1ccc([N+](=O)[O-])cc1,.,.,.,.,i,0.94,106
C/C(=N/NS(=O)(=O)c1ccc(Cl)cc1)c1cccc(NC(=O)c2ccc(Cl)cc2Cl)c1,0,54,-8,-1.9,.,.,75
COc1cc(NC(=O)CSc2nc(C)c(C)c(C)n2)c(C)cc1[N+](=O)[O-],.,.,-5,0.6,i,1.1,72

Looked up above.
CN(C)c1ccc(/C=C/C=N/Nc2nc(N3CCOCC3)nc(N3CCOCC3)n2)cc1 in RGS16-Gao HTS = 102
C/C(=N/NS(=O)(=O)c1ccc(Cl)cc1)c1cccc(NC(=O)c2ccc(Cl)cc2Cl)c1 in INS promoter inh = 0

The list continues:
mol,INS promoter inh,INS promoter inh cell count,PKD1 kinase inh,GALR2 agonist,HSV replic up,HSV replic up primary fold,RGS16-Gao HTS
O=C(NNC(=S)Nc1cccc(C(F)(F)F)c1)c1ccccc1Cl,35,107,-13,-0.3,i,0.88,95
CSc1nn2cc(CCN3CCOCC3)c(-c3ccc(F)cc3)nc2c1C#N,-156,61,-3,.,i,1.1,163
Cc1cccc(NC(=O)C(CC(C)C)NC(=O)C2CCC(C)CC2)n1 (stereo not drawn),.,.,-13,.,i,0.93,96
COC(=O)c1cc(NC(=O)c2ccccc2)c(=O)oc1C/C=N\OCc1ccc(Cl)cc1Cl,61,61,-2,-1.1,?,.,107
Cc1ccc(CN2CCN(/N=C/c3ccc(C(F)(F)F)cc3)CC2)c(C)c1,3,77,4,-0.9,i,0.96,100
CC1CCCCN1C(=O)CSc1nc2ccccc2n1CC(=O)N1CCc2ccccc21 (stereo not drawn),31,103,-7,-0.6,i,1.1,104
CCOc1cc2[nH]c(=O)n(CCCCC(=O)NCc3ccco3)c(=O)c2cc1OCC,22,113,-7,-1.1,i,0.9,96
Cc1nc(NC(=O)C(Cl)Cl)sc1C(=O)N(C)C,42,52,-18,-1.7,i,0.98,29
Cc1cc2ncn(CS(C)(=O)=O)c2cc1C,.,.,4,.,i,0.92,100
COc1ccc(-c2noc(CCC(=O)Nc3cccc(C)c3)n2)cc1,-7,126,-15,-2.4,i,0.96,91
Cc1ccc(-c2noc(CCC(=O)NCCc3ccccc3Cl)n2)cc1,57,136,-11,-1.5,i,0.89,109
O=C1C(Oc2ccc(Cl)cc2)C(c2ccc3c(c2)OCO3)N1CC1CCCO1 (stereo not drawn),.,.,1,.,i,0.92,98
Nc1nc(-c2ccco2)nc(N2CCCCC2)n1,29,116,5,-1.8,i,1,102
Cc1cc(C(C)(C)C)cc(C)c1COC(=O)C1CCC(=O)N1 (stereo not drawn),12,103,-9,-1.4,i,0.86,102
CC1=CCC(C(=O)O)C(C(=O)Nc2nc3ccc(S(C)(=O)=O)cc3s2)C1 (stereo not drawn),-33,116,-12,-1.8,i,0.78,100
CN(C(=O)COc1ccc(Cl)cc1Cl)c1nnc(C23CC4CC(CC(C4)C2)C3)s1,51,95,0,-0.9,i,1,116
C=CCNC(=O)/C(=C\c1ccc2c(c1)OCO2)NC(=O)c1ccc(Br)cc1,16,57,-6,0.1,.,.,52
O=C(NCCN1CCC(Cc2ccccc2)CC1)C1CCCN(S(=O)(=O)c2cnc[nH]2)C1 (stereo not drawn),.,.,-5,-1.9,.,.,81
CC(C)CCOc1ncnc2c1sc1nc3c(cc12)CSC(C)(C)C3,6,112,-7,-2.7,i,1.1,111
CC1CCN(C(=O)Nc2ccc3nsnc3c2)CC1,49,97,-2,-1.0,i,0.81,113
COc1ccccc1NC(=O)N(Cc1ccco1)Cc1cc2c(C)ccc(C)c2[nH]c1=O,-133,92,-3,-0.7,i,0.97,110
COCCN(CC(=O)NCc1ccc(F)cc1)C(=O)CCC(=O)Nc1nccs1,.,.,-1,-0.9,i,0.85,104
Cc1ccc(C(=O)Nc2ccc(S(=O)(=O)N3CCN(C)CC3)cc2)cc1,42,110,-10,-1.6,i,0.93,106
CCOc1ccc(N=C2NC(=O)S/C2=C\c2ccc(O)cc2)cc1,30,59,-5,-0.5,?,.,101
O=C1CC(N2CCN(C3CCc4ccccc4C3)CC2)C(=O)N1c1ccccc1 (stereo not drawn),5,71,2,0.3,i,0.92,.
CCCCCC1CCC(C(=O)NNC(=S)NCC)CC1 (stereo not drawn),.,.,4,-1.0,i,0.82,138

Printed as active in GALR2 agonist (from the list above):
Molecule	PKD1 kinase inh	GALR2 agonist	HSV replic up primary fold	RGS16-Gao HTS
CCOC(=S)SCC(=O)Nc1nc(-c2ccc(Br)cc2)cs1	1	16*	0.68	100
O=C(CN1CCCCC1)Nc1cc(Cl)ccc1Cl	-5	180*	1	101

Compounds as they come; about 1.3% have a hit in one of these screens.
